UCH37 inh: blocks the human deubiquitinase UCH37; Q9Y5K5; purified proteasome/UCH37, Ub-AMC cleavage fluorescence; inhibition, % (concentration not given with the values); actives 0.33% (n = 330,000);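 active = mean of two replicates above 20%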;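 also: 0% = compound-free wells with enzyme and 100% = wells lacking proteasome; stock transfer was 100 nL into about 20 µL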
Target sequence (Q9Y5K5 whole entry, looked up): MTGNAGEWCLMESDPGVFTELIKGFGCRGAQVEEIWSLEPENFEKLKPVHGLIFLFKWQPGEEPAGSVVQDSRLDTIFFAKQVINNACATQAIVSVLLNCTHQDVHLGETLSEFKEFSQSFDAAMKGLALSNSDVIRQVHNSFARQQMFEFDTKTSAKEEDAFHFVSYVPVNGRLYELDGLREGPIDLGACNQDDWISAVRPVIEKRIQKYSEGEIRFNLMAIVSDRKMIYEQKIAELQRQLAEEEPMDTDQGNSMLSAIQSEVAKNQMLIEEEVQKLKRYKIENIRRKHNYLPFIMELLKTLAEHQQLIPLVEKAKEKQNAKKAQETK
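assay system = human UCH37 enzyme supplied as purified proteasome complex | amount = proteasome at 0.15 nM in the dispensed enzyme solution | schedule = 30 min compound-proteasome preincubation then 25 min substrate reaction, room temperature | measured by = fluorescence, ex 355 nm, em 460 nm | benchmarks = no-proteasome wells (full inhibition) and compound-free wells (no inhibition)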
E coli growth: inhibitors of Escherichia coli growth. AID 1053175. OD600 absorbance (test concentration not listed). OD600, 23 h; active compounds read low. actives 0.21% (n = 330,000);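 active = OD600 absorbance below the run mean of sample wells minus 3.6 SD, in any replicate, cut at about 0.56 in these data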;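 also: stock transfer was 300 nL into about 60 µL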
AF4-AF9 inh: blocks AF4 peptide binding to human AF9; P42568; AID 651704; actives 0.47% (n = 350,000); AlphaScreen, biotin-AF4 peptide binding to FLAG-AF9; inhibition, % at 10 µM;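 active = every replicate reaching a set inhibition limit, whatever the replicate mean, cut at about 25% in these data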;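 also: 0% = plate neutral control median and 100% = total signal loss; the record names both 10 and 1 µM as test concentration; the first replicate is given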
Target sequence (P42568 whole entry, looked up): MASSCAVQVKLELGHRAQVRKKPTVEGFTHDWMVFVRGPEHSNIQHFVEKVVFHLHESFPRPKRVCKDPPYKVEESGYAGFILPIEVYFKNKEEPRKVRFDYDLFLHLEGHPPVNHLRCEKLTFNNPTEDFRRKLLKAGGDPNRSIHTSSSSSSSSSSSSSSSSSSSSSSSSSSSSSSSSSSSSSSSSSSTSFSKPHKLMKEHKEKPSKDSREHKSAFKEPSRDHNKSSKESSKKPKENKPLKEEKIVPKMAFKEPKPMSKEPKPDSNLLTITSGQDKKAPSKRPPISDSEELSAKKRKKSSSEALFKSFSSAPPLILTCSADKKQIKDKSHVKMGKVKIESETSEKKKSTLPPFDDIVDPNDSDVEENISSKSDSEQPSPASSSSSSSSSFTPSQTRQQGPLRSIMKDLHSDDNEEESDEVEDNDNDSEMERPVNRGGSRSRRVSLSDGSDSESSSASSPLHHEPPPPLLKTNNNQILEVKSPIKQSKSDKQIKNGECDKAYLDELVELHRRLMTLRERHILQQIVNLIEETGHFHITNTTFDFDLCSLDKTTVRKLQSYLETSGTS
FGF22 binding: FGF22 (human) thermal shift binding. Q9HCT0. recombinant FGF22 thermal shift, SYPRO orange fluorescence; percent of sucrose octasulfate shift, DMSO zero. calls only at 9.99 µM. actives 1.5% (n = 340,000);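 active = melting point raised past a set limit in the mean and every replicate; three in four hits are not shown here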
Target sequence (Q9HCT0 whole entry, looked up): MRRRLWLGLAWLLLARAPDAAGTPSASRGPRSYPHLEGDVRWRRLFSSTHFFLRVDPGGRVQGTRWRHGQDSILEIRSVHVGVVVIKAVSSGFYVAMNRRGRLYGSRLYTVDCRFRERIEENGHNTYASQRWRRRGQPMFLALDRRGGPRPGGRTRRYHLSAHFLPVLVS
A1 inh: inhibitors of the anti-apoptotic protein A1, read as caspase activation; actives 0.066% (n = 330,000); AID 2462; MEF A1-2A-BIM cells, Caspase-Glo 3/7 luminescence, 3 h; percent of clofoctol response, vehicle zero; caspase activation, % (concentration not given with the values);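 active = over half of replicate activation scores above 10%, or exactly half above 10 with the replicate mean above 10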;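 also: wells of about 30 µL received 50 nL stock; many hits fall short of the cut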
T cruzi repl: T. cruzi replication inhibition. inhibition, % (test concentration not listed). actives 1.4% (n = 300,000). T. cruzi beta-gal in NIH3T3, luminescence, 90 h;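 active = mean inhibition across valid replicates above about 55%, limit read from the data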;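 also: signal also drops with host cell toxicity which is not excluded here; 0% = plate median of DMSO wells and 100% = zero luminescence signal; higher percent means less beta-gal luminescence so fewer parasites; stock transfer was 50 nL into about 50 µL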
Ecoli rRNA inh: selective bacterial rRNA inhibition in E. coli | E. coli WT GFP vs humanized-ribosome RFP mutants, fluorescence, 24 h; active compounds read low; DMSO median 0, no signal -100 | GFP signal change (wild-type ribosome), % (concentration not given with the values) | actives 1.6% (n = 350,000);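 active = significant combined selectivity score with lowered wild-type GFP, culture density cut under 30%, mutant RFP and density less affected; inactive = any of these conditions unmet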; also: one replicate is shown; some compounds called inactive have numbers as strong as hits
Beta cell apopt: beta cell apoptosis inhibition; protection from apoptosis, % (no concentration beside the values); INS-1E cytokine-induced death, ATP luminescence, 48 h; percent of positive-control rescue, neutral wells zero; actives 0.8% (n = 300,000);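 active = all replicates at 75% or more, or half of them and the mean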;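 also: 0% = cytokine-treated negative control wells and 100% = positive control rescue; higher means more ATP so stronger rescue from cytokine killing; wells of about 40 µL received 100 nL stock; the first replicate is given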
Ecoli rRNA inh OD600: second read-out of Ecoli rRNA inh, no call of its own (marks repeat the call); OD600 change, %; measured here: OD600 growth;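 optical density of the mix in the first replicate; 0 = DMSO median and -100 = no signal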
Ecoli rRNA inh RFP: second read-out of Ecoli rRNA inh, no call of its own (marks repeat the call); RFP signal change, %; measured here: RFP humanized mutant strains;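 first replicate; 0 = DMSO median and -100 = no signal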
* marks the source's active call; other numbers are inactive results; i = inactive; . = not tested or not shown.

#1 Cc1ccccc1OC(=O)CCC(=O)OCCCC(F)(F)C(F)(F)F
#2 Cc1ccc(S(=O)(=O)N(C)C)cc1NC(=S)NC12CC3CC(CC(C3)C1)C2
#3 O=C(NCc1ccccc1)C(c1ccccc1)N(Cc1ccc2c(c1)OCO2)C(=O)Cc1cccs1 (centres undefined)
#4 CCOC(=O)N1CCN(C(=O)CSc2nnc(COc3ccccc3)o2)CC1
#5 COc1ccc(C(CC(=O)N2CCOCC2)c2c(OC)cc(OC)c3c(-c4ccccc4)cc(=O)oc23)cc1 (centres undefined)
#6 C[C@H](NC(=O)Nc1cccc(C(F)(F)F)c1)C(=O)O
#7 OC(COC(c1ccccc1)c1ccccc1)CN1CCN(c2cccc(Cl)c2)CC1 (centres undefined)
#8 C=CCNC(=O)/C(C#N)=C\c1cc(Cl)c(O)c(OCC)c1

entry no.	1	2	3	4	5	6	7	8
UCH37 inh	0.1	-0.1	2.8	0.8	1.8	1.7	.	7.3
E coli growth	0.674	0.686	0.724	0.746	0.61	0.703	.	0.677
AF4-AF9 inh	-0.2	7.0	.	-4.7	6.4	.	-0.5	.
FGF22 binding	i	i	.	.	i	.	i	.
A1 inh	0.7	.	0.1	-0.2	-0.4	0.2	-0.3	0.1
T cruzi repl	-6.8	21.5	25.9	4.5	10.1	-18.8	28.7	-4.0
Ecoli rRNA inh	0.7	-31.0	.	1.0	-10.6	.	-13.3	.
Ecoli rRNA inh OD600	6.1	-53.1	.	3.5	-12.2	.	-60.4	.
Ecoli rRNA inh RFP	1.9	17.4	.	-0.7	10.4	.	14.2	.
Beta cell apopt	1.5	.	7.2	0.7	0.2	-2.1	-0.3	0.7

#9 CCN(c1ccccc1)S(=O)(=O)c1cc(C(=O)Nc2ccc(Br)cc2)ccc1F
#10 O=C(c1ccco1)N1CCN(C(=O)c2ccccc2[N+](=O)[O-])CC1
#11 COc1ccc(Cl)cc1NC(=O)CN1C(=O)CSC1=O
#12 CCCC(C)C(=O)Nc1cc([N+](=O)[O-])ccc1F (centres undefined)
#13 CCOc1ccc(/C=N/NC(=O)c2ccccc2C)cc1CN1CC2CC(C1)c1cccc(=O)n1C2 (centres undefined)
#14 Cc1cc(/C=C2/NC(=O)NC2=O)c(C)n1C
#15 Cc1c(C(=O)OCC(=O)NCc2ccco2)cccc1[N+](=O)[O-]
#16 Cn1ccc(/C=N/N=C2/NC(=O)CS2)n1

entry no.	9	10	11	12	13	14	15	16
UCH37 inh	5.2	-1.7	4.3	1.1	.	8.6	5.3	.
E coli growth	0.7	0.669	0.71	0.661	.	0.676	0.695	.
AF4-AF9 inh	.	-0.5	.	1.9	.	-0.1	7.6	0.8
FGF22 binding	.	i	.	i	i	i	i	i
A1 inh	-0.3	-0.3	0.3	0.4	0.5	-0.8	0.1	-0.2
T cruzi repl	56.8*	-6.3	-11.8	-6.5	.	-3.8	.	-6.7
Ecoli rRNA inh	.	8.1	.	6.6	-5.6	3.0	-5.9	-43.2*
Ecoli rRNA inh OD600	.	5.1	.	5.3	-4.2	2.4	6.0	-34.6*
Ecoli rRNA inh RFP	.	-9.7	.	-0.8	3.2	-2.8	2.8	-10.8*
Beta cell apopt	-1.2	0.7	-2.4	-9.3	0.3	-3.4	-3.6	-1.7

#17 Cc1ccc(C)c(Cc2c(C)nc3c(C(=O)NCc4ccc5c(c4)OCO5)cnn3c2C)c1
#18 Cc1ccc(-c2nc3c(c(=O)c4ccccc4n3C)c(=O)n2-c2ccccc2)cc1
#19 CC1=C(C(=O)N2CCCC(C(=O)c3cccc4ccccc34)C2)OCCO1 (centres undefined)
#20 CC(=O)c1cccc(NC(=S)NC(=O)C(C)C)c1
#21 O=C(CCCOc1ccccc1)Nc1ccc(Br)cc1
#22 Cc1cccc(CN2CCN(Cc3cccc(-n4cccn4)c3)CC2CCO)n1 (centres undefined)
#23 COCCNC(=S)N(CCCN(C)C)Cc1cc2cc3c(cc2[nH]c1=O)OCCO3
#24 COc1ccc(-c2ccc(SCC(=O)NC3CCCCC3)nn2)cc1OC

entry no.	17	18	19	20	21	22	23	24
UCH37 inh	.	2.2	1.2	2.1	3.3	-0.2	-109.3	3.1
E coli growth	.	0.683	0.691	0.668	0.744	0.653	0.697	0.688
AF4-AF9 inh	-11.7	.	6.3	.	.	-8.5	-0.5	1.9
FGF22 binding	i	.	i	.	.	.	i	i
A1 inh	-0.8	0.5	1.2	-0.4	0.0	1.0	0.7	-0.4
T cruzi repl	67.7*	-2.5	2.1	-27.1	-6.5	8.5	1.8	8.8
Ecoli rRNA inh	4.0	.	-7.4	.	.	5.2	15.9	-7.5
Ecoli rRNA inh OD600	-8.3	.	7.5	.	.	9.1	9.4	-8.6
Ecoli rRNA inh RFP	-4.9	.	9.1	.	.	14.5	0.5	-0.9
Beta cell apopt	11.3	-3.3	-4.9	.	-4.1	6.3	-5.3	11.1

#25 FC(F)(F)c1ccc(C2NCCc3sccc32)cc1 (centres undefined)
#26 O=C(COc1ccc(S(=O)(=O)NC2CCCC2)cc1)N1CCCCC1
#27 CCOc1ccc(-n2nnnc2SCC(=O)NNC(=O)c2ccco2)cc1
#28 CCOC(=O)c1c(/N=C/C2C(=O)CC(C)(C)CC2=O)sc2c1CCCC2
#29 CC1CCN(S(=O)(=O)c2ccc(C(=O)NCc3ccco3)cc2)CC1
#30 COc1ccc(NC2c3ccccc3C(=O)N2Cc2ccco2)cc1OC (centres undefined)
#31 CCOc1ccccc1-c1cc(-c2ccccc2)nc2c1c(=O)n(C)c(=O)n2C
#32 CCCCCNc1nc2ccccc2nc1NS(=O)(=O)c1cccs1

entry no.	25	26	27	28	29	30	31	32
UCH37 inh	0.2	1.9	1.7	.	3.8	2.4	-1.5	-10.1
E coli growth	0.719	0.726	0.698	.	0.718	0.763	0.666	0.696
AF4-AF9 inh	-1.5	0.2	0.2	1.2	1.3	6.8	.	.
FGF22 binding	i	i	i	.	i	i	.	.
A1 inh	0.1	-0.1	-2.0	-0.1	0.4	0.1	0.7	1.0
T cruzi repl	2.4	5.7	6.0	-1.3	-13.4	0.9	-16.0	-6.0
Ecoli rRNA inh	8.6	-0.1	0.9	11.8	6.3	0.6	.	.
Ecoli rRNA inh OD600	5.4	7.9	12.6	-1.4	5.4	-2.7	.	.
Ecoli rRNA inh RFP	1.4	0.8	1.2	-1.6	-3.1	3.7	.	.
Beta cell apopt	-0.2	-8.1	-2.8	-4.2	-28.3	7.4	-4.1	-2.1

#33 COCCCNC(=O)C1CCN(C(=O)Nc2ccc(Cl)cc2)CC1
#34 COc1ccc(N(CC(=O)N2CCN(c3ccc(Cl)cc3)CC2)S(=O)(=O)c2c(C)noc2C)cc1
#35 O=C(OCc1ccc(Cl)c(Cl)c1)c1ccccn1
#36 Cc1ccc(N(CC(=O)NCc2cccs2)S(=O)(=O)c2cccs2)cc1
#37 C=CCN(CC=C)CC(=O)Nc1ccc(S(N)(=O)=O)cc1
#38 O=C(CCCl)N1CCCC2(CCCCC2)C1
#39 CCOc1ccc(S(=O)(=O)N2CCOCC2)cc1NC(=O)CSCc1ccc(C)cc1
#40 C=C(C)COc1ccc2c(C)c(CC(=O)N3C[C@H]4C[C@@H](C3)c3cccc(=O)n3C4)c(=O)oc2c1

entry no.	33	34	35	36	37	38	39	40
UCH37 inh	1.2	4.6	0.4	6.5	-0.9	2.5	-1.0	-163.2
E coli growth	0.713	0.699	0.633	0.702	0.737	0.701	0.669	0.686
AF4-AF9 inh	.	6.6	.	.	.	-5.2	6.1	-1.0
FGF22 binding	.	i	.	.	.	i	i	i
A1 inh	-0.1	0.8	-0.3	1.0	-0.3	0.4	-0.7	1.0
T cruzi repl	-8.2	27.6	7.0	-7.7	-6.0	0.9	.	47.7
Ecoli rRNA inh	.	1.3	.	.	.	7.1	-11.0	.
Ecoli rRNA inh OD600	.	-1.6	.	.	.	-0.3	-11.2	.
Ecoli rRNA inh RFP	.	0.3	.	.	.	-1.5	-3.8	.
Beta cell apopt	-1.9	7.3	-5.7	1.9	-2.4	-7.8	14.2	1.4

Grouped by structure, those above with bromine.
#9 CCN(c1ccccc1)S(=O)(=O)c1cc(C(=O)Nc2ccc(Br)cc2)ccc1F
#21 O=C(CCCOc1ccccc1)Nc1ccc(Br)cc1

entry no.	9	21
UCH37 inh	5.2	3.3
E coli growth	0.7	0.744
AF4-AF9 inh	.	.
FGF22 binding	.	.
A1 inh	-0.3	0.0
T cruzi repl	56.8*	-6.5
Ecoli rRNA inh	.	.
Ecoli rRNA inh OD600	.	.
Ecoli rRNA inh RFP	.	.
Beta cell apopt	-1.2	-4.1

(next part)
#41 CCOc1ccc(N(CC(=O)NC(C)C)C(=O)CCC(=O)Nc2ccccn2)cc1
#42 CC#CCN1c2ccccc2[C@]23C[C@@H](C(=O)OC)N(C(C)=O)C2=NC(C(=O)OC)=C(C(=O)OC)[C@H]13
#43 COc1ccc(OCC(=O)NNC(=O)Cn2c(=O)cnc3ccccc32)cc1
#44 CN(C)S(=O)(=O)c1cccc(NC(=O)COC(=O)c2ccc3ccccc3n2)c1
#45 O=C(Nc1ccccc1)N(CCc1ccncc1)C1CCCCC1
#46 CC(C)Sc1nc2c(c(=O)[nH]c(=O)n2C)n1CCc1ccccc1
#47 COC(=O)c1sccc1-c1ccc(/C=N/OC(=O)c2cccs2)o1
#48 COc1ccc(S(=O)(=O)N2CCCC2CNC(=O)C(=O)NCCc2ccccc2)cc1 (centres undefined)

entry no.	41	42	43	44	45	46	47	48
UCH37 inh	5.6	0.0	-3.2	-0.6	6.1	0.8	.	2.0
E coli growth	0.648	.	0.662	0.714	0.695	0.743	.	0.648
AF4-AF9 inh	3.1	8.4	-0.5	-0.6	-14.1	.	-1.9	0.7
FGF22 binding	i	i	i	i	i	.	i	i
A1 inh	-0.2	0.3	.	0.1	1.3	-0.4	0.1	-1.6
T cruzi repl	-1.3	-12.7	.	.	-2.0	-9.4	-19.8	2.8
Ecoli rRNA inh	1.4	4.2	3.3	-1.4	6.6	.	12.1	-20.4
Ecoli rRNA inh OD600	3.9	-0.2	-0.3	3.5	1.2	.	6.9	-26.2
Ecoli rRNA inh RFP	-0.3	-2.9	-0.3	-0.6	-4.2	.	1.1	4.2
Beta cell apopt	-3.7	-2.6	.	-6.2	-6.8	-7.0	-4.8	10.8

#49 Cc1noc(C)c1COc1ccc(C(=O)OCC(=O)Nc2ccc(C(=O)N(C)C)cc2)cc1
#50 O=C(CSc1nnc(Cc2ccccc2)n1Cc1ccco1)NC1CCCC1
#51 Cc1nn(CCC#N)c(NC(=O)c2ccc(Cl)cc2Cl)c1P(=O)(Nc1ccc([N+](=O)[O-])cc1)N1CCOCC1 (centres undefined)
#52 Cc1nn(C)c(C)c1-c1c(C#N)c(N)nc2c1CCCCCC2
#53 O=C(Nc1ccc(F)cc1)c1cccnc1N1CCOCC1

entry no.	49	50	51	52	53
UCH37 inh	2.4	-0.2	6.1	.	-1.4
E coli growth	0.642	0.669	0.697	.	0.707
AF4-AF9 inh	0.0	.	.	.	.
FGF22 binding	i	.	.	.	.
A1 inh	0.4	0.0	-0.4	2.7	-0.1
T cruzi repl	-0.1	19.0	-16.5	2.7	-4.8
Ecoli rRNA inh	4.3	.	.	-1.7	.
Ecoli rRNA inh OD600	6.2	.	.	1.6	.
Ecoli rRNA inh RFP	-1.5	.	.	-1.2	.
Beta cell apopt	4.9	-6.7	1.3	-6.9	1.5

Bioassay records: PubChem, several laboratories

This is a subset, so the mix of outcomes need not match the whole.
